Screening results as filed in PubChem.
rRNA inh HTS: inhibits bacterial ribosomal RNA function over humanized ribosomes; E. coli WT GFP vs humanized-ribosome RFP mutants, fluorescence, 24 h; hits give low values; DMSO median 0, no signal -100; GFP signal change (wild-type ribosome), % (no concentration beside the values); actives 1.6% (n = 350,000); AID 720706;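 active = significant combined selectivity score with lowered wild-type GFP, culture density cut under 30%, mutant RFP and density less affected; inactive = any of these conditions unmet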; also: one replicate is shown; some compounds called inactive have numbers as strong as hits
ALR H2O2 inh: human ALR oxidase inhibition via reduced H2O2; AID 485317; actives 3.8% (n = 290,000); purified ALR, DTT oxidation, H2O2 HRP-luminol luminescence; inhibition, % (concentration not given with the values);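 active = mean and each replicate at 75% or more; inconclusive = only one of the two met; inactive = neither met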;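 also: stock transfer was 7.5 nL into about 7.5 µL; 0% = neutral wells and 100% = wells with inactivated enzyme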
Target sequence (P55789 whole entry, looked up): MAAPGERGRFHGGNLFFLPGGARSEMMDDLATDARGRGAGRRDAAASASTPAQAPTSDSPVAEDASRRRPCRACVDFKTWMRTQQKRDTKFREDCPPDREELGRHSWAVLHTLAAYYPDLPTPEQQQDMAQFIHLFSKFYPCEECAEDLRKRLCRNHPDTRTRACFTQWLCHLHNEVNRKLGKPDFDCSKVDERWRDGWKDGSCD
FGF22 binding: binders of recombinant human FGF22 by thermal shift; SYPRO orange fluorescence; percent of sucrose octasulfate shift, DMSO zero; calls only at 9.99 µM; actives 1.5% (n = 340,000); AID 651658;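 active = melting point raised past a set limit in the mean and every replicate; inconclusive = no clear call; three in four hits are not shown here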
Target sequence (Q9HCT0 whole entry, looked up): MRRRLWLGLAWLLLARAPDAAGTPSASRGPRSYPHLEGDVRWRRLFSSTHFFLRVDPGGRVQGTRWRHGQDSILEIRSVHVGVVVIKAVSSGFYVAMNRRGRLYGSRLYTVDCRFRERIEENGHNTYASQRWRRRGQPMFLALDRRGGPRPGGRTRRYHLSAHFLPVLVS
HNF4A DNA FP: change in binding of human HNF4 alpha to DNA | actives 0.3% (n = 360,000) | AID 1224865 | P41235 | HNF4a-FITC DNA binding, fluorescence polarization, 1 h | activity change, % at 10 µM; in the data active = activity change above about 30%, passing the limit was not always enough;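 also: controls were the assay level and a saturating level of protein; the project sought stronger binding though the title names inhibitors; some compounds called inactive have numbers as strong as hits; positive values seem to mean higher polarization but the record does not say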
AF4-AF9 inh: MLL-AF4/AF9 protein interaction inhibition. AID 651704. AlphaScreen, biotin-AF4 peptide binding to FLAG-AF9. actives 0.47% (n = 350,000). inhibition, % at 10 µM. P42568;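 active = every replicate reaching a set inhibition limit, whatever the replicate mean, cut at about 25% in these data; inconclusive = mean inhibition reaches that limit but some replicates miss it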;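 also: 0% = plate neutral control median and 100% = total signal loss; the record names both 10 and 1 µM as test concentration; the first replicate is given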
Target sequence (P42568 whole entry, looked up): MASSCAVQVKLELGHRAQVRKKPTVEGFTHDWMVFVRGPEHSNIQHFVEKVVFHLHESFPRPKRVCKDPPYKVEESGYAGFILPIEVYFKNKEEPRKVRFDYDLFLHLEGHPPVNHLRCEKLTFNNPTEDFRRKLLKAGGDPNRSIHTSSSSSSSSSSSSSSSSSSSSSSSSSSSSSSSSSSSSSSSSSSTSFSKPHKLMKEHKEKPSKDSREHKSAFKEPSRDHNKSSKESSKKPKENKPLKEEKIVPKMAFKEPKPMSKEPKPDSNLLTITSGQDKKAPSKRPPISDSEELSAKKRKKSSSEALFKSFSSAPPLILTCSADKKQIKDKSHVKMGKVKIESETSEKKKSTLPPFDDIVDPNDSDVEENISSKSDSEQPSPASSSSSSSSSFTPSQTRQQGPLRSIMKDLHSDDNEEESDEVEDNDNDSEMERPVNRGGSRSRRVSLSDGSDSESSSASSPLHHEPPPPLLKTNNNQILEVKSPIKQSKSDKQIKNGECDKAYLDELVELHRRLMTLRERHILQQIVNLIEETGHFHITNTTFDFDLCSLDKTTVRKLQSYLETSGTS
Ecoli growth: inhibitors of Escherichia coli growth; OD600, 23 h; hits give low values; OD600 absorbance (concentration not given with the values); actives 0.21% (n = 330,000); AID 1053175;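 active = OD600 absorbance below the run mean of sample wells minus 3.6 SD, in any replicate, cut at about 0.56 in these data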;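 also: stock transfer was 300 nL into about 60 µL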
Vif A3G: inhibitors of Vif binding to APOBEC3G peptide, primary screen, biochemical, TR-FRET, GST-Vif 1-94, biotin-A3G peptide, dose response retest (AID 1117319); TR-FRET GST-Vif / biotin-A3G peptide binding; higher % means a stronger effect; test concentration not given here; strong numbers were not always called active; actives 0.57% (n = 260,000); inhibition, %, or IC50 in µM where a hit was titrated;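 active = above the screen mean plus three standard deviations and confirmed in dose response; inconclusive = results disagree or hit not tested in dose response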;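 also: Vif residues 1-94 fused to GST binding biotinylated APOBEC3G peptide 110-148; 0% = full assay without inhibitor and 100% = GST in place of GST-Vif; retest series ran down from 100 µM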
rRNA inh HTS OD600: recorded beside rRNA inh HTS, whose call it bears; OD600 change, %; measured here: OD600 growth;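 optical density of the mix in the first replicate; 0 = DMSO median and -100 = no signal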
rRNA inh HTS RFP: recorded beside rRNA inh HTS, whose call it bears; RFP signal change, %; measured here: RFP humanized mutant strains;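 first replicate; 0 = DMSO median and -100 = no signal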
Active calls of the source: *; i = inactive; ? = inconclusive; . = not tested or not shown. This is a subset, so the mix of outcomes need not match the whole.

SMILES	rRNA inh HTS	rRNA inh HTS OD600	rRNA inh HTS RFP	ALR H2O2 inh	FGF22 binding	HNF4A DNA FP	AF4-AF9 inh	Ecoli growth	Vif A3G
Cn1cc(Cl)c(C(=O)Nc2nc3ccccc3s2)n1	.	.	.	0	.	-1.4	.	0.65	71%
CCOc1ccccc1NC(=O)CSc1nnc(Cc2cccn2C)n1-c1ccc(F)cc1	-6	-9	2.9	45	i	3.1	5.7	0.75	?
COCCNC(=O)COC(=O)CSCc1nc2ccccc2s1	.	.	.	98*	.	2.9	.	0.68	-6%
CNC(=S)N(CCCO)Cc1cc2cc3c(cc2[nH]c1=O)OCO3	15	7	13	-17	i	2.2	-3.3	0.64	-9%
CN(C)S(=O)(=O)c1ccc(NC(=O)COC(=O)CC2CC3CCC2C3)cc1 (configuration not stated)	-24	-51	0.7	3	i	4.8	-2.4	0.64	4%
CCOC(=O)c1c(C)[nH]c(N=Nc2cccc(OC)c2)c1C	-16	5	20	-30	i	5.8	22	0.69	4%
CN(C1CCCCC1)S(=O)(=O)c1ccc(SCC(=O)C(C)(C)C)nc1	.	.	.	3	i	-1.7	-2.6	0.7	.
N#CC(C#N)=c1ccc2c(c1)NC1(CCCCC1)N=2	.	.	.	58	.	1.2	.	.	15%
CCc1ccc(C(=O)Nc2cc(C)on2)o1	5	10	-1.4	0	i	1.9	0.3	0.7	.
Cc1cc(C)c[n+](-c2[nH]c(=O)sc2/C=N/N=C(\N)[S-])c1	18	26	-0.1	26	i	3.3	-4.0	.	.
CCOC(=O)CN1C(=O)C(=O)N(Cc2cccc(C)c2)C1=O	6	9	0.1	1	i	-1.0	2.5	0.65	-2%
CCCCNC(=O)c1cc(-c2ccc(OC)c(OC)c2)on1	-6	-8	1.0	-7	i	3.5	7.4	0.76	4%
CCCc1cc(=O)oc2c(C)c(OCc3nn[nH]n3)ccc12	-15	-9	-3.6	37	i	-3.7	1.6	0.66	-8%
O=C(COC(=O)CNS(=O)(=O)c1cccc(F)c1)NCCc1ccccc1	2	7	1.9	.	i	-4.3	-2.3	0.69	0%
CCOC(=O)CN1C(=O)S/C(=C/c2ccc(C)o2)C1=O	5	4	1.9	.	i	-0.1	4.2	0.66	8%
CCN(CC)C(=O)Oc1ccc2c(=O)c(-c3ccc(OC)cc3)coc2c1	-1	7	-1.5	-2	i	0.4	4.4	0.7	?
Cc1ccc(-c2nc(C(=O)NCCCN3CCOCC3)cc3c2[nH]c2ccccc23)cc1	.	.	.	-4	i	-1.3	15	0.69	.
O=C(NCCc1ccccc1)c1cccc2c1C(=O)c1ccc(N3CCOCC3)cc1S2(=O)=O	13	7	-0.5	7	i	14	1.0	0.72	.
O=C(Nc1cccc(C(F)(F)F)c1)C(Sc1n[nH]c(=O)[nH]c1=O)c1ccccc1 (configuration not stated)	0	-1	8.0	6	i	0.2	-35	0.69	-4%
COc1cccc(C(c2c(N)n(C)c(=O)n(C)c2=O)C(C)[N+](=O)[O-])c1 (configuration not stated)	0	-1	-3.0	1	i	-0.3	-9.5	0.68	13%
Cn1nnnc1SCC1=C(C(=O)O)N2C(=O)C(NC(=O)Cn3nc(C(F)F)cc3C3CC3)C2SC1 (configuration not stated)	14	16	-1.7	-14	i	-0.6	-6.8	0.49*	24%
COCCNc1c2c(nc3ccccc13)CCC2	20	9	2.7	-4	i	0.4	2.8	0.69	1%
FC(F)(F)c1cccc(NC(=S)NC(c2ccccc2)c2ccccc2)c1	-25	-16	14	48	i	-0.2	0.5	0.7	.
O=C(NCc1ccccc1)C(=O)c1cn(CC(=O)N2CCOCC2)c2ccccc12	15	8	4.7	3	i	4.0	-1.7	0.69	.
Cc1onc(-c2ccccc2Cl)c1NC(=O)NCc1cccs1	3	3	-2.1	-7	i	0.7	.	0.63	-8%
CCn1cc(C=O)c2cc(S(=O)(=O)N3CCOCC3)ccc21	9	5	-1.8	-2	i	0.4	-11	0.69	.
Cc1ccc2nc(/C=C/c3cccc(F)c3)ccc2c1	0	3	1.8	-6	i	-0.3	3.0	0.7	-3%
COc1cc(NC(=O)c2ccc(N3CCCC3=O)cc2)cc(OC)c1	4	8	1.1	-9	i	-3.3	1.0	0.71	-5%
CC1CCCN(C(=O)CCNS(=O)(=O)c2ccc3c(c2)c(=O)n(C)c(=O)n3C)C1 (configuration not stated)	2	5	0.3	-3	i	3.6	1.2	0.67	.
COC(=O)C1=C(C)NC2=C(C(=O)CCC2)C1c1coc2ccccc2c1=O (configuration not stated)	.	.	.	-22	.	-2.0	.	0.74	12%
O=C(Cn1nc(Cl)nc1Cl)c1ccccc1	5	4	-0.2	-1	i	3.2	-3.2	.	-5%
Cc1cccc(-n2cnc3cc(C(=O)NCCN4CCOCC4)ccc32)c1	0	-5	-1.2	.	i	1.7	-1.3	.	2%
CCOC(=O)N1CCN(C(=S)NC(=O)c2cc(Br)ccc2Cl)CC1	14	14	1.3	-2	i	3.1	-2.5	0.72	-2%
CCC1(CC)C(=O)NC(=O)NC1=S	6	13	4.0	.	i	-0.1	-3.8	0.72	-4%
O=C(NC1CC(=O)N(c2ccc(F)cc2)C1)C(=O)c1c[nH]c2ccccc12 (configuration not stated)	-14	4	7.0	-2	i	1.3	-1.1	0.73	-15%
CCCCC(=O)N(Cc1ccc2c(c1)OCO2)Cc1nc2ccccc2c(=O)[nH]1	-23*	-13*	-3.8*	-1	i	0.7	1.7	0.69	17%
CCCc1nc([N+](=O)[O-])c(S(=O)(=O)c2ccccc2)n1CC(C)C	-2	4	-5.5	-1	i	-1.6	-0.2	0.66	?
O=C(O)C(Cc1c[nH]c2ccccc12)NS(=O)(=O)c1cccc(Cl)c1Cl (configuration not stated)	2	5	15	.	i	0.3	-3.6	0.64	-2%
C[C@@H]1CN([C@@H](C)CO)C(=O)Cc2cc(NC(=O)Cc3cn(C)c4ccccc34)ccc2O[C@H]1CN(C)CC1CC1	3	3	0.2	.	i	.	19	.	.
CSc1ccc(SC2CN(Cc3ccc(C)cc3)S(=O)(=O)C2)cc1 (configuration not stated)	-15	-20	-0.6	.	i	.	-3.7	.	.
Cc1ccnc2nc(C(=O)OCC(=O)NC3CCC(C)CC3)nn12 (configuration not stated)	8	9	1.0	-2	i	-1.6	1.0	0.72	-4%
COc1ccc(-c2nc(-c3ccc(NC(=O)c4ccncc4)cc3)no2)cc1OC	.	.	.	-1	.	3.8	.	0.74	-25%
COc1ccc(Oc2c(Cl)cnn(-c3ccc(Cl)c(Cl)c3)c2=O)cc1	.	.	.	10	.	-0.7	.	0.74	4%
Cc1ccc(CCNC(=O)C2CCN(S(=O)(=O)c3c(C)nn(C)c3C)CC2)cc1	4	0	0.1	0	i	-1.2	-1.4	0.75	1%
COc1ccc(CNC(=O)CN(C(=O)CCC(=O)Nc2ccccn2)c2cc(C)ccc2C)cc1	-7	-10	4.0	-6	i	-1.0	-3.7	0.62	.
COc1ccccc1-c1ccc2c(c1)O[C@H](CN(C)CC1CCOCC1)[C@@H](C)CN([C@@H](C)CO)S2(=O)=O	-9	-13	4.5	.	i	.	2.4	.	.
O=C(N[C@@H]1C=C[C@@H](CC(=O)N2CCCCC2)O[C@@H]1CO)c1ccc2c(c1)OCO2	3	3	-0.9	.	i	.	-3.6	.	.
NC(=O)CC(c1ccccc1)c1ccc2c(c1)OCO2 (configuration not stated)	-1	3	0.0	-11	i	3.3	-0.2	0.65	.

Only rRNA inh HTS RFP and HNF4A DNA FP, for five of the compounds above:
mol	rRNA inh HTS RFP	HNF4A DNA FP
CCOc1ccccc1NC(=O)CSc1nnc(Cc2cccn2C)n1-c1ccc(F)cc1	2.9	3.1
COCCNC(=O)COC(=O)CSCc1nc2ccccc2s1	.	2.9
CNC(=S)N(CCCO)Cc1cc2cc3c(cc2[nH]c1=O)OCO3	13	2.2
CN(C)S(=O)(=O)c1ccc(NC(=O)COC(=O)CC2CC3CCC2C3)cc1 (configuration not stated)	0.7	4.8
CCOC(=O)c1c(C)[nH]c(N=Nc2cccc(OC)c2)c1C	20	5.8

Remaining list, next part
SMILES	rRNA inh HTS	rRNA inh HTS OD600	rRNA inh HTS RFP	ALR H2O2 inh	FGF22 binding	HNF4A DNA FP	AF4-AF9 inh	Ecoli growth	Vif A3G
COc1ccc(/C=C/C(=O)Nc2ccc(C)cc2)cc1S(=O)(=O)N1CCOCC1	-13	-5	-2.5	2	i	-1.8	-21	0.71	8%
COc1ccc(NC(=O)N(C)C[C@H]2Oc3ccc(NC(=O)NC4CCCCC4)cc3C(=O)N([C@H](C)CO)C[C@H]2C)cc1	-2	-1	-3.6	.	i	.	-3.1	.	.
C=CCn1c(SCc2ccccc2C#N)nnc1-c1ccccc1O	.	.	.	-2	.	1.3	.	0.67	0%
CCC(=O)N1[C@H](CO)[C@@H](c2ccc(-c3ccc(C#N)cc3)cc2)C12CN(C(C)=O)C2	0	3	-3.4	.	i	.	-2.2	.	.
O=C(N/C(=C\c1cccc([N+](=O)[O-])c1)C(=O)N(CCO)CCO)c1ccco1	21	15	2.4	-15	i	4.7	0.6	0.65	.
Cn1nc(-c2ccc(OCC(=O)Nc3ccccc3)cc2)c2ccccc2c1=O	.	.	.	1	.	2.4	.	0.71	31%
COc1ccc(-c2nn(-c3ccccc3)cc2/C=N/Nc2ccc3ccccc3n2)cc1OC	-3	2	10	-6	i	0.4	16	.	2%
Cn1c(SCC(=O)NNC(=O)c2ccccc2)nnc1C1CC1	1	9	0.9	.	i	1.1	1.8	0.66	.
CCN(CC)C(=O)c1cc2c(=O)n3ccccc3nc2s1	0	-11	-2.7	.	i	1.4	3.9	0.73	-1%
Cc1noc(C)c1S(=O)(=O)N(C)C[C@H]1OCCCC[C@H](C)Oc2ccc(NS(=O)(=O)c3cccs3)cc2C(=O)N([C@@H](C)CO)C[C@H]1C	-3	-8	-1.7	.	i	.	-0.2	.	.
NC(CSC12CC3CC(CC(C3)C1)C2)C(=O)O (configuration not stated)	.	.	.	9	.	2.5	.	0.7	10%
O=C(COc1ccc(Cl)cc1Br)NCC(c1ccco1)N1CCCC1 (configuration not stated)	-1	-3	1.8	.	i	5.8	4.0	0.67	3%
CCOC(=O)N1CCN(S(=O)(=O)c2ccc(C(=O)NNc3nc4ccc(Cl)cc4s3)cc2)CC1	.	.	.	98*	.	3.0	.	0.73	-7%
Cc1noc(C)c1S(=O)(=O)Nc1ccc2c(c1)C(=O)N([C@@H](C)CO)C[C@@H](C)[C@@H](CN(C)Cc1ccc(Oc3ccccc3)cc1)O2	-14	-41	16	.	i	.	7.8	.	.
COc1ccc2c3c(n(C)c2c1)[C@H](CO)N(C(=O)C1CCC1)CC31CCN(C(=O)Nc2cccc(F)c2)CC1	-6	-9	4.3	.	i	.	0.2	.	.
N#C[C@@H]1[C@@H](c2ccccc2C2=CCCCC2)[C@H](CO)N1S(=O)(=O)c1cccc(F)c1	-26	-63	2.4	.	i	.	-5.8	.	.
C[C@H](CO)N1C[C@H](C)[C@H](CN(C)C(=O)NC2CCCCC2)Oc2ccc(NC(=O)Nc3ccc4c(c3)OCO4)cc2CC1=O	2	1	-1.3	.	i	.	1.1	.	.
COc1c2ccoc2cc2oc(=O)ccc12	4	9	-1.4	.	i	-1.5	-3.3	0.7	.
Cn1c2ccccc2n2c(=O)c(=O)n(CC(=O)c3ccc(Cl)cc3)nc12	2	10	-3.5	-3	i	0.4	0.7	0.69	-11%
